nsP2pro inh: inhibitors of chikungunya virus nsP2 protease | actives 1.1% (n = 31,000) | AID 1964107 | Q8JUX6 | FRET peptide cleavage, nsP2pro, fluorescence 1 h | Potency, µM (series often up to 24.9 µM), for inactives: at the highest dose activity change, negative = inhibition, hits mostly inhibitors; active means well fitted inhibition curve with a large enough effect; inconclusive means small, poorly fitted or top-dose-only effect; inactive means no such curve, though single readings can be large or run the other way; further: nearly all actives have a fitted effect of over 60% in size; a reference inhibitor and vehicle were the controls
The depositor's hits bear a star; i = inactive; ? = inconclusive; & = joins results of further samples; [ ] = dose if it differs, or a comment. On the % scale 0 is the no-effect control and ±100 the full control effect; potency means the concentration at half of the fitted maximal effect. The list is partial; count on the stated rates, not on these rows.

molecule	nsP2pro inh
CC1=C(/C=C/C(C)=C/C=C/C(C)=C/C(=O)O)C(C)(C)CCC1	?
C=CC1C(O[C@@H]2O[C@H](CO)[C@@H](O)[C@H](O)[C@H]2O)OC=C(C(=O)OC)C1Cc1nccc2c1[nH]c1ccccc12 (some centres not stated)	-7.4%[10 µM]
COc1ccccc1[C@H](c1cccc2ccccc12)[C@@](C)(C#N)C(=O)N1CCC(c2cccc(C(F)(F)F)c2)CC1	1.3%
C=C(C)[C@H]1C[C@@H](O)C(=C)CC[C@@H](O)C(=C)[C@@H](O)C1	?
COCCCNS(=O)(=O)c1cc(-c2onc(C)c2C)ccc1OC	-19.2%
COCCn1nc2n(c1=O)CCC1(CC2)CCN(C(=O)CC(C)(C)C)CC1	-2.6%
COCCOCc1nc(C2CCCCN2C(=O)c2ccncc2)no1 (configuration not stated)	-1.1%
Cc1cc(C)nc(NC(=S)N2CCN(c3nncs3)CC2)c1	-9.0%
COc1ccc(-c2nc3ccccc3n2Cc2ccccc2)cc1COc1ccc(NC(C)=O)cc1	-4.7%
CN(CCc1ccccn1)C[C@H]1CN2CC[C@H]1C[C@@H]2CNC(=O)Nc1ccsc1	i
CCCCSCCCNC(=O)c1cn(C)c2ccc(S(=O)(=O)N3CCCCCC3)cc2c1=O	-13.2%
Cn1cccc1CN1CCC2(CC1)CNc1ccccc1[S+](=O)([O-])N2	-26.5%
CCc1nn2c(-c3ccccc3OC)ccnc2c1-c1ccccc1	-15.3%
CSc1cnc(-c2ccccc2C(C)C)nc1NCc1ccc(-c2cccnc2)cc1	i
COCc1ncc(C)n1CCNC(=O)c1cc(-c2cc(C)ccc2C)n[nH]1	i
C[C@H](CCC(=O)O)[C@H]1CC[C@H]2[C@@H]3[C@H](O)C[C@@H]4C[C@H](O)CC[C@]4(C)[C@H]3C[C@H](O)[C@]12C	-1.5%
Cc1nnc(-c2ccccc2[N+](=O)[O-])n1CCCn1ccnc1	i
CC(C)c1onc(-c2c(Cl)cccc2Cl)c1COc1ccc(/C=C/c2cccc(C(=O)O)c2)c(Cl)c1	90.3%[activator]
Cc1ccnc(NC(=S)N2CCc3cc(C(F)(F)F)ccc3C2)c1	i
CCN1CCN(Cc2c(O)ccc3c(C)c(-c4ccc(OC)cc4)c(=O)oc23)CC1	-6.3%
COc1c2c(c(C)c3c1C(=O)OC3)O[C@@]1(C)C[C@@H](OC(C)=O)[C@]34O[C@](OC)(CC[C@]3(C)[C@H]1C2)OC4(C)C	-0.8%[10 µM]
N#Cc1ccc([C@H]2CCCC[C@H]2O)cc1C(F)(F)F	-16.7%
O=C(NCCNc1cccnc1)C1CCC(=O)N(C2CC2)C1 (configuration not stated)	?
CCC(C)C(=O)OC[C@H]1O[C@H](O[C@H]2O[C@H](CO)[C@@H](O)[C@H](O)[C@H]2O)[C@H](O)[C@@H](O)[C@@H]1O (some centres not stated)	?
CCOc1ccc(NC(=O)Cn2c(C)cc3ccccc3c2=O)cc1	?
OC[C@H]1O[C@@H](Oc2cc(O)cc(-c3cc4ccc(O[C@@H]5O[C@H](CO)[C@@H](O)[C@H](O)[C@H]5O)cc4o3)c2)[C@H](O)[C@@H](O)[C@@H]1O	21.0%[10 µM]
O=C(Cn1nc2n(c1=O)CCCC2)NCc1ccc(F)cc1	i
O=C(O)CCCN1CCC(O[C@@H](c2ccc(Cl)cc2)c2ccccn2)CC1	-14.1%&-0.3%
CCOc1ccc(N(CC)S(=O)(=O)N2CCCC(C(=O)Nc3ccc(C(C)=O)cc3)C2)cc1 (configuration not stated)	-5.1%
Cc1ccc(-c2nc(NCc3ccncc3)ncc2C(=O)O)cc1	i
CNC(=O)c1ccc(NC(=O)c2nc(C(O)c3ccccc3F)oc2C)cc1 (configuration not stated)	-3.5%[39.2 µM]
COc1ccc(S(=O)(=O)N(Cc2nc(-c3ccc(C)cc3)no2)C2CCCCC2)cc1	-22.6%
NC(=O)C1CCN(c2ncnc(-c3ccc4c(c3)OCCCO4)n2)CC1	4.2%
CC1=C[C@@H](CNS(=O)(=O)Cc2ccccc2)[C@H](C(C)C)C[C@H]1CC(=O)NCc1ccccn1	-9.0%
CC1(C(=O)Nc2ccccc2)CCc2cnc(N3CCOCC3)nc21 (configuration not stated)	-6.6%[39.2 µM]
COc1ccc(C2CCC(=O)N2Cc2ccc(F)cc2)cc1 (configuration not stated)	i
N#Cc1nc(Nc2cc(Cl)cc(Cl)c2)nc(NC2CCCC2)n1	-7.0%
N[C@H]1CN(c2cncc(C(=O)N3CCCCC3)n2)C[C@@H]1C1CC1	i
Cc1ccc(S(=O)(=O)N2CCCc3cc(NS(=O)(=O)c4cccc(Cl)c4)ccc32)cc1	28.0%
O=C(NC1CC1)c1ccc2nnc(C3CCCC3)n2c1	i
COc1ccc(C2(CNC(=O)c3ccc(NC(=O)c4ccco4)cc3)CCOCC2)cc1	-4.9%
CN(c1ccccc1)c1cc(=O)c2ccnc(-c3cncnc3)c2o1	-9.3%[39.2 µM]
N[C@@H]1CCN(c2cnc3c(O)ccc(C(=O)O)c3c2)C1	i
COc1ccc(NC(=O)C2=C(C)C(=O)OC23CCN(C(C)C)CC3)cc1Cl	-8.5%
COc1cccc(N2CCN(c3ncnc4onc(-c5ccc(Cl)cc5)c34)CC2)c1	-14.8%
CCOc1ccc2c3c1O[C@H]1[C@@H](O)C=C[C@H]4[C@@H](C2)N(C)CC[C@@]341	11.1%
CC(C)c1ccccc1-c1nc2c(c(NCc3ccc(-c4cccnc4)cc3)n1)CNC2	i
Cc1ccc(-c2nc3c4ccccc4[nH]c(=O)n3n2)cc1	?
CC(C)c1cc2c(N3CCN(C4=NCC(C)(C)S4)CC3)ncnc2s1	-0.2%
COc1ccc(Cl)cc1NC(=O)CSc1nc2ccccc2nc1N1CCCCC1	-6.4%

In the list so far, these have a furan ring, fused or not:
molecule	nsP2pro inh
OC[C@H]1O[C@@H](Oc2cc(O)cc(-c3cc4ccc(O[C@@H]5O[C@H](CO)[C@@H](O)[C@H](O)[C@H]5O)cc4o3)c2)[C@H](O)[C@@H](O)[C@@H]1O	21.0%[10 µM]
COc1ccc(C2(CNC(=O)c3ccc(NC(=O)c4ccco4)cc3)CCOCC2)cc1	-4.9%

Next part:
molecule	nsP2pro inh
CCOC(=O)c1ccc(NC(=O)c2sc3nc4c(cc3c2N)N2CCC4CC2)cc1	-20.1%
CCC(CC)C(=O)Nc1sc2c(c1C#N)CCC(C(C)(C)CC)C2 (configuration not stated)	-18.7%
CN1C(=O)c2ccccc2Sc2ccc(NC(=O)c3ccc(C(F)(F)F)cc3)cc21	-18.1%
O=C(O)CCc1cc2ccoc2cc1O[C@@H]1O[C@H](CO)[C@@H](O)[C@H](O)[C@H]1O	-4.7%
CCn1ccnc1CN(C)C(=O)c1ccc2oc(-c3ccc(C(F)(F)F)cc3)nc2c1	i
C=C1CCCC2(C)CC3(OC)OC(=O)C(C)=C3CC12 (configuration not stated)	1.4%
COc1ccc(C(=O)N2CCCC(n3cc(-c4nc(C5CC5)no4)nn3)C2)cn1 (configuration not stated)	2.8%
COc1ccc(CCc2nc(C3CC(=O)N(c4ccc(Cl)cc4)C3)no2)cc1 (configuration not stated)	i
N#Cc1ccc(N2CCN(S(=O)(=O)c3ccc4c(c3)CC(=O)N4)CC2)cc1	-6.6%
CCc1ccc(S(=O)(=O)Nc2cnccc2C(=O)Nc2nc(-c3ccccc3)cs2)cc1	i
O=C1NCCCCCN(C(=O)C2CCCCC2)[C@H]2CCCC[C@@H]12	2.3%
C[C@@H]1C(=O)O[C@H]2[C@H](O)C34[C@H]5C[C@@H](C(C)(C)C)C36[C@@H](OC(=O)[C@@H]6O)O[C@@]4(C(=O)O5)[C@@]12O (some centres not stated)	?
COc1ccc(CNC(=O)c2cc3cc4cc(OC)ccc4nc3o2)cc1	-22.4%
COc1cccc(NC(=O)C2CCCN2S(=O)(=O)c2ccc3c(c2)n(C)c(=O)c(=O)n3C)c1 (configuration not stated)	-18.3%
CCN(CCc1cn(C)cn1)c1ncnc2ccc(-c3ccc4c(c3)OCO4)cc12	i
CC1(C)CN2C(CSC(=NC3CCCCC3)NC3CCCCC3)=CSC2=N1	2.6%
CC(C)(O)CCc1ccc(OCc2cc(-c3cccc(OC(F)F)c3)c3ncccc3c2)cc1	34.4%[activator]
CN(CC[C@H](N)CC(=O)N[C@H]1C=C[C@@H](n2ccc(N)nc2=O)O[C@@H]1C(=O)O)C(=N)N	?
C/C=C/C=C/C1=C2C(=O)C3(C)C4C(C(=O)CC(O)/C=C/C)=C(O1)C1(C)C2C2(C)OC1(O)C4(C)OC23O (configuration not stated)	45.8%[activator][10 µM]
COc1ccccc1-n1cc(C(=O)N[C@H](c2cnn(C)c2)C2CC(O)C2)cn1 (some centres not stated)	-5.0%
COCCNc1cc(-c2ccc3ccccc3n2)c2cc[nH]c2n1	-1.3%
COC1CC(=O)CCC(C)OC(=O)CC1O (configuration not stated)	-25.6%
COc1ccccc1-c1ccc2c(n1)CN(CC(=O)N1CCCC1)C(=O)CO2	-4.1%[39.2 µM]
CC1=NS(=O)(=O)N(CCc2ccccc2)C=C1C(=O)O	1.3%
Cc1c(NC(=O)c2cc3c(s2)CCCC3)cccc1-c1cn(C)c(=O)c(Nc2ccc(C3C(=O)N(C)CCN3C)cc2)n1 (configuration not stated)	-7.1%

2 of the compounds above, as labelled records:
COc1cccc(NC(=O)C2CCCN2S(=O)(=O)c2ccc3c(c2)n(C)c(=O)c(=O)n3C)c1 (configuration not stated)
  nsP2pro inh = -18.3%
CCN(CCc1cn(C)cn1)c1ncnc2ccc(-c3ccc4c(c3)OCO4)cc12
  nsP2pro inh = i

4 of these compounds, set out differently.
C/C=C/C=C/C1=C2C(=O)C3(C)C4C(C(=O)CC(O)/C=C/C)=C(O1)C1(C)C2C2(C)OC1(O)C4(C)OC23O (configuration not stated)
  nsP2pro inh = 45.8%[activator][10 µM]

COc1ccccc1-n1cc(C(=O)N[C@H](c2cnn(C)c2)C2CC(O)C2)cn1 (some centres not stated)
  nsP2pro inh = -5.0%

COCCNc1cc(-c2ccc3ccccc3n2)c2cc[nH]c2n1
  nsP2pro inh = -1.3%

COC1CC(=O)CCC(C)OC(=O)CC1O (configuration not stated)
  nsP2pro inh = -25.6%

Further results:
molecule	nsP2pro inh
CCc1ccccc1NC(=O)Cn1c(=O)n(Cc2ccco2)c(=O)c2ccccc21	-20.1%
Cc1ccc(OCC(=O)Nc2ccc3nc(SCC(=O)N4CCOCC4)sc3c2)cc1C	-19.2%
C=C1CC[C@H]2[C@@H](/C=C(\C)C(=O)[C@@]3(OC(C)=O)C[C@H](C)[C@H](OC(=O)c4ccccc4)[C@@H]3[C@H]1OC(C)=O)C2(C)C	?
O=C(NC1CCCc2c1cnn2-c1ccc(F)cc1F)c1ccn[nH]1 (configuration not stated)	-9.7%
Cc1nnc(-c2cc(-c3ccsc3)ccn2)n1C(C)C	12.8%[39.2 µM]
OC(CC1c2ccccc2-c2cncn21)C1CCCCC1 (configuration not stated)	7.7%&58.4%
CC(=O)N1CC2(CCCN2Cc2cccc(C(N)=O)c2)Cc2ccccc21 (configuration not stated)	i
CC(C)Oc1ccc(C(=O)Nc2ccc(-c3nc4ccccc4[nH]3)cc2)cc1	-0.7%
CCN(c1ncnc2c1c(-c1ccccc1)cn2-c1ccccc1)C1CCCCC1	-27.3%
NC(=O)CN1C(=O)CO[C@H]2CN(Cc3ccccn3)C[C@H]21	i
CN(CCCNC(=O)c1ccc2nc3c(c(Cl)c2c1)CCCC3)Cc1ccccc1	26.2%
COc1cccc(Nc2cnc3ccc(-c4ccc(F)cc4)nn23)c1	71.6%[activator][39.2 µM]
O=C(c1ccc(F)cc1)C1CCN(CCn2c(=O)nc3n(c2=O)CCCC3)CC1	-4.9%
Cc1ccc(-n2ncc(C(=O)NCCCN3CCN(C)CC3)c2C2CCN(C(=O)OC(C)(C)C)CC2)c(C)c1	3.4%
O=C1CC(c2ccc([N+](=O)[O-])cc2)=NN1c1ccccc1	?
Cn1c(=O)n(C)c2cc(N3CCCC3)c(NC(=O)Nc3ccccc3)cc21	-12.1%
CC(NC(=O)CN(c1ccc(Cl)cc1Cl)S(=O)(=O)c1ccccc1)c1ccccc1 (configuration not stated)	-7.7%
Cn1c(Oc2ccc(Cl)cc2)nc2c1c(=O)n(Cc1ccc(F)cc1)c(=O)n2C	-23.4%
Cc1ccc(OCC(=O)N2CCC3(CC2)N=C(c2ccc(C)cc2)NO3)cc1	-2.8%
O=[N+]([O-])c1ccccc1-c1nc(NCc2ccc(-c3cccnc3)cc2)c2ccccc2n1	1.7%
O=C(CC1N=C2c3ccccc3N=C(SCc3ccc(Cl)cc3)N2C1=O)NC1CCCCC1 (configuration not stated)	-18.9%
CSc1ccc(CCNC(=O)c2ccc3c(Cl)c4c(nc3c2)CCCC4)cc1	-10.4%
COc1ccc(NC(=O)CSc2nc(-c3cc(OC)c(OC)c(OC)c3)[nH]c2-c2ccc(F)cc2)cc1	-2.7%
O=C(c1ccc2ccccc2n1)N1CC2CC(C1)[C@H]1CCCC(=O)N1C2 (some centres not stated)	-1.5%
Cc1cccc(OCCCC(=O)Nc2sc3c(c2C(N)=O)CCC(C)C3)c1 (configuration not stated)	-11.5%
Cc1ccc(NC(=O)C2CCCN(S(=O)(=O)c3cccs3)C2)c(C)c1 (configuration not stated)	-26.4%
CCNC(=O)N1C[C@@H](F)[C@@H](OCc2nc3ccc(F)cc3[nH]2)C1	i
C[C@]12CCC(=O)C=C1C=C[C@@H]1[C@@H]2CC[C@@]2(C)[C@H]1CC[C@@]21CCC(=O)O1	-13.8%
